Compound activity: PubChem BioAssay, NMMLSC
Autofluor counter – compound fluorescence in toxin protease inhibitor counterscreen; compound autofluorescence counterscreen, microsphere flow cytometry; hits give high values; fluorescence intensity (no concentration beside the values); hit rate 3.1% among 360,000;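 active = at least 3 SD above the mean of all compounds, about 16000 in these data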;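 note: 100 nL of 1 mM stock went into each well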
* = called active by the depositor. Only part of the results is shown, so the mix of outcomes need not match the whole.

SMILES | Autofluor counter
C[C@H](CO)N1C[C@H](C)[C@H](CN(C)C(=O)c2ccccc2F)Oc2ncc(Br)cc2C1=O | 3442
O=C(OC1C2C=CC1C1C(=O)NC21)c1ccccc1 (stereo unspecified) | 3732
C[C@@H]1CN([C@@H](C)CO)S(=O)(=O)c2ccc(Br)cc2O[C@H]1CN(C)Cc1ccncc1 | 3353
COc1ccc(C=Cc2ccc3ccccc3n2)c(OC)c1 | 3587
CC(C)(C)C(=O)N1CCN(c2ccc3c(c2)C2CC3CCN2C(=O)OCc2ccccc2)CC1 (stereo unspecified) | 5370
COC(=O)c1ccc2cc(OC)c(OC)cc2c1 | 2891
CCCCNC(=O)C1c2ccccc2OCC(=O)N1CCc1c[nH]c2ccccc12 (stereo unspecified) | 5593
c1cc2c(cc1N1CCOCC1)CNCc1cnnn1-2 | 4270
CS(=O)(=O)c1ccc(C2=C(CNC(=O)c3cccnc3)[C@H]3CC[C@@H](C2)N3Cc2ccco2)cc1 | 3758
CCOC(=O)N1CCN(C(=O)C[C@@H]2C[C@@]3(C(=O)OCC)CCC=C3N(CCC3=CCCCC3)C2=O)CC1 | 6078
CCOC(=O)C1=CCN(S(=O)(=O)c2ccccc2Br)C1c1ccc(F)cc1 (stereo unspecified) | 6180
CSc1nc2c(=S)[nH]c(=S)[nH]c2s1 | 4201
O=C(NC(c1ccccc1)c1ccsc1)C1CCN(Cc2ccc(Oc3ccccc3)cc2)CC1 (stereo unspecified) | 4056
COCCn1c(=S)[nH]c2cc(C(=O)NC3CCCCCC3)ccc2c1=O | 3556
O=C(NCC1CC1)c1ccc2sc([C@@H]3O[C@H](CO)[C@H](O)[C@H](O)[C@H]3O)nc2c1 | 3891
COc1ccc(C(=O)N2CCC(C)(C(=O)O)C2)c(OC)c1 (stereo unspecified) | 4145
CCOc1ccc(S(=O)(=O)N2CCCCC2)cc1NC(=O)C1CCCC1 | 3797
CCCCCCN1CCN(C2CN(Cc3cn(Cc4ccccc4)nn3)S(=O)(=O)C2)CC1 (stereo unspecified) | 4344
O=C(Nc1ccc(Cl)cn1)c1ccccc1-c1ccccc1 | 3608
COC(=O)c1c(N)[nH]c(C(=O)c2ccccc2)c1-c1ccccc1Br | 4351
O=C(OCc1ccccc1)N1C[C@H](O)[C@H](O)C[C@@H]1c1c(Cl)cccc1Br | 7997
COc1ccc(-c2nnc(SCC(=O)N(C)C3CCS(=O)(=O)C3)n2CC(C)C)cc1 (stereo unspecified) | 3121
COc1cc(-c2cc(NC=O)c3ncc(-c4ccccc4)n3c2)cc(OC)c1OC | 3545
O=C(O)c1ccsc1Cc1cccs1 | 2992
CC1(C(=O)NS(=O)(=O)c2ccc(Cl)s2)CCN1C(=O)Cc1ccc(Cl)cc1Cl (stereo unspecified) | 2951

Continued; it opens with the two that closed the last part.
SMILES | Autofluor counter
O=C(O)c1ccsc1Cc1cccs1 | 2992
CC1(C(=O)NS(=O)(=O)c2ccc(Cl)s2)CCN1C(=O)Cc1ccc(Cl)cc1Cl (stereo unspecified) | 2951
CC(O)(c1cccc(F)c1)c1nc(-c2cc(F)cc(F)c2)cs1 (stereo unspecified) | 3620
N#Cc1ccccc1S(=O)(=O)N1CCN(c2nc(-c3ccccc3)nc3ccccc23)CC1 | 3435
COCCNc1nc(Oc2ccc(CC(=O)OC)cc2)c2sc(-c3ccccc3)cc2n1 | 3407
Cc1ccc(S(=O)(=O)N2C[C@H]3N(C(=O)OC(C)C)N(C(=O)OC(C)C)C[C@H](OC(=O)NCc4ccccc4F)[C@@]3(O)C2)cc1 | 4653
Cc1ccc(OCc2cc(C(=O)N3CCCC(C)C3)no2)cn1 (stereo unspecified) | 3949
CCOC(=O)C1(C)CCCN1C(=O)c1ccc(OC)c(OC)c1 (stereo unspecified) | 3843
OC(c1ccc(Cl)cc1)c1ncc(-c2ccc(Oc3ccccc3)cc2)[nH]1 (stereo unspecified) | 2966
O=C1NC(Cc2ccc(O)cc2)c2nc3cc(F)c(F)cc3c(=O)n2-c2cc3ccccc3cc21 (stereo unspecified) | 3548
CCN(CC)C1CCN(C(=O)c2ccc(OC3CCN(C(=O)CCOC)CC3)cc2)C1 (stereo unspecified) | 3736
C#CCN(C[C@@H]1[C@@H](OC(=O)NCC2CCCCC2)[C@@H](OC(=O)NCC2CCCCC2)CN(C(=O)OC(C)C)N1C(=O)OC(C)C)S(=O)(=O)c1ccc(C)cc1 | 4278
CCOC(=O)C1(C)CCCN1C(=O)c1ccc(OC)c(F)c1 (stereo unspecified) | 3660
COc1ccc(Cl)cc1-c1cc(C(=O)NCc2cccc(Cl)c2)[nH]n1 | 3860
CC(C)C[C@@H](CN1CCC[C@H]1CN1C(=O)C(=O)NC[C@@H]1Cc1ccc(O)cc1)N1C[C@H](Cc2ccc(O)cc2)N(CC2CCCCC2)C(=O)C1=O | 5790
C[C@@H]1CN([C@@H](C)CO)S(=O)(=O)c2ccc(Br)cc2O[C@H]1CN(C)C(=O)C1CCCCC1 | 3661
O=C(NCCCN1CCOCC1)c1c(-c2ccccc2)oc2c1C(OCCCCCO)CCC2 (stereo unspecified) | 5930
CCC(CC)C(=O)N(C)c1c(C)nc2c(OCc3cccc(Cl)c3)cccn12 | 3967
COc1ccc(NC(=O)CSc2nnc3n2CCCCC3)cc1OC | 3805
Fc1cccc(Cc2c(-c3cccc(Cl)c3)nc3c4ccccc4ccn23)c1 | 6613
CCCNC(=O)C1(C)CCCN(Cc2csc(-c3ccccc3)n2)C1 (stereo unspecified) | 3900
Clc1cccc(Cl)c1NC1=NCCS1 | 3564
COc1cc(OC)cc(-c2c(Sc3ccccc3)c3cc(-c4ccc(OC)nc4)ccc3n2C)c1 | 5587
COc1ncnc2c1ncn2CCCNCCCN1CCCC1=O | 3055
COc1ccc([C@H]2N[C@]3(CCCN(Cc4ccc(C)cc4)C3=O)[C@H]3C(=O)N(Cc4ccccc4)C(=O)[C@@H]23)cc1 | 3716
NC(Cc1ccc(F)cc1)c1csc(Nc2cc(Oc3ccccc3)ncn2)n1 (stereo unspecified) | 3545
COCC1CCN(C(=O)c2cc(COc3ccc(F)cc3Cl)on2)C1 (stereo unspecified) | 3419

Remaining list, next part
SMILES | Autofluor counter
COCC(=O)N1C[C@H]2CON(C)[C@H]2C[C@H]1c1cccc(-c2ccccc2OC)c1 | 3764
CC(C)C[C@H]1CNC(=S)N1C[C@H]1CCCN1C[C@H](Cc1ccc(O)cc1)N1C[C@H](Cc2ccccc2)N(CC2CCCCCC2)C1=S | 5875
COc1ccccc1-c1ccc([C@@H]2C[C@H]3[C@H](CON3C)CN2C(=O)c2ccco2)cc1 | 3839
CCCCn1nnnc1C(CC)N1CCN(C/C=C/c2ccccc2)CC1 (stereo unspecified) | 4249
CCN(C(=O)CN(C1=NC2CS(=O)(=O)CC2S1)c1ccc(OC)cc1)c1cccc(C)c1 (stereo unspecified) | 5672
COc1ccc([C@@H]2C[C@H]3[C@@H](CN2S(=O)(=O)c2ccccc2)C(=O)C[C@@H](c2ccccc2)N3S(=O)(=O)c2ccc(C)cc2)cc1 | 3690
O=C(NCCC(F)(F)F)C1Cc2c(-c3cccc(F)c3)ccnc2O1 (stereo unspecified) | 3469
Cc1sc2ccccc2c1CNC[C@H]1O[C@@H](n2ccc(N)nc2=O)[C@H](O)[C@@H]1O | 3632
Cc1ccc(NC(=O)CNC(=O)C23CC4CC(CC(C4)C2)C3)nc1 | 4105
O=C(Cn1cc2c(n1)CCCCC2)Nc1ccc(F)cc1F | 5591
Cc1cn([C@H]2C[C@H](O)[C@@H](/C=C/C(=O)NCCc3ccc4ccccc4c3)O2)c(=O)[nH]c1=O | 5467
Cc1ccc(S(=O)(=O)N(C)C[C@@H]2OCCCC[C@H](C)Oc3ccc(NC(=O)Nc4ccc(F)cc4)cc3C(=O)N([C@H](C)CO)C[C@H]2C)cc1 | 3823
O=CNc1cc(-c2ccc(C(=O)NC3CC3)cc2)cn2c(-c3ccccc3)cnc12 | 4089
O=C(NCc1ccncc1)[C@@H]1CCCN1C(=O)[C@@H]1CCCN1C(=O)c1cccc2ccccc12 | 5100
CC1(C(=O)Nc2cnc3ccccc3c2)CCN1Cc1ccccc1Cl (stereo unspecified) | 4033
COc1ccc(NS(=O)(=O)c2cc(N=Nc3c(O)[nH]c(=O)[nH]c3=O)ccc2OC)cc1Br | 2997
CC1(c2nc3ccccc3[nH]2)CCC2=Nc3ccccc3CN21 (stereo unspecified) | 5365
c1ccc(-c2nc(NCC3CC3)nc3ccsc23)cc1 | 3481
Cc1nn(CC(C)C)c(Cl)c1C(=O)NCC(C)(C)N1CCOCC1 | 3578
C[C@@H]1CN([C@H](C)CO)C(=O)CCCn2nncc2CO[C@H]1CN(C)S(=O)(=O)c1cccc(F)c1 | 3053
COc1cccc(C#Cc2cnc3c(c2)C(=O)N([C@@H](C)CO)C[C@H](C)[C@H](CN(C)C(=O)C2CCC2)O3)c1 | 3687
CCc1nc2ccc(C(=O)Nc3ccc(OC)c(OC)c3)cn2c1N(C)Cc1cccs1 | 3970
CN1OC[C@@H]2CN(Cc3ccc(Cl)cc3)[C@H](c3ccc(N4CCCCC4)cc3)C[C@@H]21 | 13802
COc1ccccc1N(CC(=O)N1CCCCC1C)S(=O)(=O)c1ccc(Cl)cc1 (stereo unspecified) | 3276
Fc1ccc(-c2nc3ccc(Br)cn3c2Cc2cccc(Cl)c2)cc1 | 12358

Entries above with an NH in an aromatic ring, in the order listed:
SMILES | Autofluor counter
CCCCNC(=O)C1c2ccccc2OCC(=O)N1CCc1c[nH]c2ccccc12 (stereo unspecified) | 5593
CSc1nc2c(=S)[nH]c(=S)[nH]c2s1 | 4201
COCCn1c(=S)[nH]c2cc(C(=O)NC3CCCCCC3)ccc2c1=O | 3556
COC(=O)c1c(N)[nH]c(C(=O)c2ccccc2)c1-c1ccccc1Br | 4351
OC(c1ccc(Cl)cc1)c1ncc(-c2ccc(Oc3ccccc3)cc2)[nH]1 (stereo unspecified) | 2966
COc1ccc(Cl)cc1-c1cc(C(=O)NCc2cccc(Cl)c2)[nH]n1 | 3860
Cc1cn([C@H]2C[C@H](O)[C@@H](/C=C/C(=O)NCCc3ccc4ccccc4c3)O2)c(=O)[nH]c1=O | 5467
COc1ccc(NS(=O)(=O)c2cc(N=Nc3c(O)[nH]c(=O)[nH]c3=O)ccc2OC)cc1Br | 2997
CC1(c2nc3ccccc3[nH]2)CCC2=Nc3ccccc3CN21 (stereo unspecified) | 5365

Going on with the list:
SMILES | Autofluor counter
C(=C\c1ccccc1)/CN1CCN(C(c2nnnn2Cc2ccccc2)C2CC2)CC1 (stereo unspecified) | 5652
Cc1cc2nc(-c3cccc(Cl)c3)c(CC(C)(C)C)n2c(C)c1Br | 5915
O=C(NCc1cccc(F)c1)Nc1nnc([C@@H]2C[C@H](O)[C@@H](CO)O2)s1 | 3750
CC(NC(=O)c1ccc(Cl)c(S(=O)(=O)NC2CC2)c1)c1ccco1 (stereo unspecified) | 3737
CN1CCN([C@H]2CS(=O)(=O)N[C@@H]2COCc2ccccc2)CC1 | 5251
COc1cccc(CNc2nc3cc(-c4cccc(C(F)(F)F)c4)sc3c(=O)n2C)c1OC | 4140
COc1cc(C)ccc1S(=O)(=O)NC(=O)C1(C)CCN1C(=O)Cc1ccc(Cl)cc1Cl (stereo unspecified) | 3479
CC1=C(C(=O)N(C(C)C)C(C)C)CC(CC(=O)NCCc2ccccn2)C(=O)N1Cc1ccc(F)cc1 (stereo unspecified) | 4093
C[C@@H]1CN([C@H](C)CO)C(=O)c2cc(Br)cnc2O[C@@H]1CN(C)C(=O)Nc1ccccc1 | 2879
COc1cccc(Nc2nc(C(N)COCc3ccccc3)cs2)n1 (stereo unspecified) | 2686
CC(=O)Nc1cc(-c2ccc(N3CCN(C)CC3)cc2)cn2c(-c3ccc(F)c(Cl)c3)cnc12 | 2941
CC1(C(=O)Nc2cccc(C#N)c2)CCN1C(=O)CCc1ccccc1 (stereo unspecified) | 3540
CCCS(=O)(=O)NC(=O)C1(C)CCN(C(=O)c2cccc(C)c2C)C1 (stereo unspecified) | 3805
O=C(c1ccco1)N1Cc2ccccc2-n2nncc2C1 | 3520
O=C(Nc1cccc(Cl)c1)Nc1nnc([C@@H]2C[C@H](O)[C@@H](CO)O2)s1 | 3836
C#CCNC(=O)C[C@@H]1C[C@@]2(C(=O)OC)CCCCC=C2N(Cc2cccc3ccccc23)C1=O | 6198
OCC[C@@H]1C[C@H](O)[C@@H](O)[C@@]2(OCc3ccc4ccccc4c32)O1 | 6110
Cc1cc(C)cc(C(O)c2ncc(-c3ccccc3Cl)[nH]2)c1 (stereo unspecified) | 3052
CC(NC(=O)COC(=O)c1ccc2c(=O)n3c(nc2c1)CCCCC3)c1ccc(F)cc1 (stereo unspecified) | 3971
COc1ccc(-n2nnnc2C(c2cccs2)N2CCC3(CC2)C(=O)NCN3c2ccccc2)cc1 (stereo unspecified) | 5296
CCCCCN1C(=O)c2cc(OC)ccc2[C@@]2(C(=O)OCC)Cc3cc(OC)ccc3[C@@H]12 | 5208
CSc1ccc(OC2(C)CCN(Cc3ccc(-c4ccccn4)cc3)C2)cc1 (stereo unspecified) | 3929
COCCNC(=O)C1(C)CCCN(C(=O)c2ccccc2F)C1 (stereo unspecified) | 3899
FC(F)(F)c1nc2nc(Cl)c(Cl)nc2[nH]1 | 3752
COCCNC(=O)C1CCCN(C(=O)c2cc(C(C)(C)C)nn2C)CC1 (stereo unspecified) | 3120
CNC(=O)OCc1snc(-c2ccccc2)c1COC(=O)NC | 5431
O=C(OC1CC2CC1[C@H]1CCCCN1C2=O)N1CCN(S(=O)(=O)c2ccccc2)CC1 (stereo partly specified) | 6086
COc1cc(C(=O)N2CCC2(C)C(=O)O)cc(OC)c1OC (stereo unspecified) | 3710
N#Cc1ccc(Nc2nc(-c3ccccc3)cs2)cc1 | 5587
CCOc1ccc2nc(S(=O)(=O)NC(=O)C3(C)CCN3C(=O)c3cc(C)n(C)n3)sc2c1 (stereo unspecified) | 3996

Looked up above.
`COc1cccc(CNc2nc3cc(-c4cccc(C(F)(F)F)c4)sc3c(=O)n2C)c1OC` @ Autofluor counter: 4140
`C#CCNC(=O)C[C@@H]1C[C@@]2(C(=O)OC)CCCCC=C2N(Cc2cccc3ccccc23)C1=O` @ Autofluor counter: 6198
`CC1(C(=O)Nc2cccc(C#N)c2)CCN1C(=O)CCc1ccccc1` (stereo unspecified) @ Autofluor counter: 3540
